From PubChem BioAssay
ugtP null kill: growth inhibition of ugtP-null S. aureus, primary screen, RN4220 ugtP deletion, OD600. 16 h; some inactives read as strong as hits. growth inhibition, % (concentration not given with the values). 330,000 tested, 0.54% active. AID 1259309, 2017;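 active means z-score under -3 and OD600 up to 0.15 on both plates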;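 further: plate controls were untreated wells for no effect and antibiotic for full effect; wells of about 80 µL received 100 nL stock; the first replicate is given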
Mtb hypoxia inh: PubChem AID 1159583. M. tuberculosis hypoxia-regulated fluorescent reporter, fluorescence. fluorescence inhibition, % (test concentration not listed). 300,000 tested, 0.1% active;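 active means 35 to 45% if threefold the growth effect, above 45% if 1.5-fold the growth effect; inactive means the rest, general growth blockers included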;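 further: wells of about 50 µL received 100 nL stock; 0% = vehicle wells and 100% = reference inhibitor wells; whole bacteria with a GFP reporter of the hypoxia response; strong numbers were not always called active; many hits fall short of the cut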
Autofluor counter: flagged as autofluorescent in microsphere protease counterscreen | AID 624483 | 360,000 tested, 3.1% active | compound autofluorescence counterscreen, microsphere flow cytometry; active compounds read high | fluorescence intensity (concentration not given with the values);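 active means at least 3 SD above the mean of all compounds, about 16000 in these data; inconclusive means too few beads counted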;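 further: 100 nL of 1 mM stock went into each well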
PrP 5UTR inh: inhibition of PrP 5' UTR reporter expression; cell-based PrP 5' UTR mRNA reporter, plate reader; inhibition, % (test concentration not listed); 340,000 tested, 0.35% active; AID 488862, 2010;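 active means every replicate at 50% or more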;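 further: 0 = median of the neutral control wells; tested in H4 reporter cells; numbers are from one replicate; inactives centre near -14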
Sa RN4220 lethal: growth inhibition of S. aureus RN4220, primary screen, OD600; 16 h; inhibition, % (no concentration beside the values); 330,000 tested, 0.33% active; AID 1259311, 2017;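 active means z-score of -3 or lower and OD600 up to 0.18 on both plates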;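 further: plate controls were untreated cells for no effect and reference antibiotic for full effect; stock transfer was 100 nL into about 80 µL; one replicate is shown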
BJeLR viability: MLPCN primary cell-based screen for lethality selective to Ras in HRASV12 cells | BJeLR (HRASV12) viability, CellTiter-Glo ATP luminescence, 48 h; reference of the scale not given here | inhibition, % (concentration not given with the values) | 300,000 tested, 0.17% active;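 active means replicate mean above 50%; inconclusive means above 50% but judged a plate artefact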;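 further: 50 nL library stock added to about 25 µL; numbers are from one replicate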
Mtb hypoxia inh growth: recorded beside Mtb hypoxia inh, whose call it bears; growth inhibition, %; measured here: M. tuberculosis growth (absorbance);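 0% = vehicle and 100% = reference antibiotic; read after six days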
Starred values were filed as active, the others as inactive; u = inconclusive; x = not tested or not shown; & = joins results of further samples.

mol,Sa RN4220 lethal,BJeLR viability,Autofluor counter,ugtP null kill,PrP 5UTR inh,Mtb hypoxia inh,Mtb hypoxia inh growth
CC(Cc1cccs1)NC(=O)CCCn1nnnc1CN1CCOCC1 (stereo not given),0.6,1.0,5095,7.1,-24.7,3.0,9.2
CC(=O)Nc1ccc(/C=N/Nc2nc3ccccc3[nH]2)cc1,x,66.7*,2639,x,-25.1,x,x
CCCCCC/C(C)=C1/SC(=S)NC1=O,60.7,7.7,8766,60.8,-27.6,4.2,7.0
Cc1ccc(C2CC(=O)C(C=NCCN3CCN(CC(=O)Nc4cc(C)cc(C)c4)CC3)=C(O)C2)cc1 (stereo not given),1.7,x,2259,2.3,-80.2&-1.0,17.3,17.0
CC(=O)Oc1ccc(C23c4ccccc4C2(OC(C)=O)c2cc(OC(C)=O)ccc23)cc1 (stereo not given),-2.2,x,3657,-14.6,-31.3,14.4,8.0
O=C(NC1CCCCC1)C(=S)N1CCCC1,5.2,3.9,3947,2.1,-62.1,4.1,-1.7
Clc1ccccc1OCCn1nnc2ccccc21,10.4,-1.9,3962,-3.2,-48.2,17.6,4.2
Cc1ccc(C)c(N2CCN(C(=O)c3ccc(Cn4c(=O)[nH]c5ccccc5c4=O)cc3)CC2)c1,-0.3,-6.3,4142,-11.9,-10.2,-3.0,16.2
O=C(NCCN1CCOCC1)c1cccc(Br)c1,3.2,-5.0,5601,4.8,-27.2,10.3,12.1
CC(C)(C)c1ccc(C2=NC(=O)C(CC(=O)O)S2)cc1 (stereo not given),0.0,-9.7,6340,-0.6,-20.0,-2.6,-14.5
CCOc1cccc(N(C(=O)CNC(=O)c2ccco2)C(C(=O)NCC2CCCO2)c2ccccc2)c1 (stereo not given),5.9,-3.7,2710,9.9,-11.4,12.0,0.1
Cc1cc(C)c2c(n1)nn1c(C)c(CCC(=O)NCc3ccco3)c(C)nc21,-0.4,8.3,5661,0.4,1.0,6.3,1.4
Cc1ccc(S(=O)(=O)N2CCOCC2)cc1NC(=O)COC(=O)c1cccc(Cl)c1Cl,3.3,x,3921,9.4,-6.3,3.5,5.8
O=C(NCCc1ccc(C(F)(F)F)cc1)C1COc2ccccc2O1 (stereo not given),0.5,-2.4,3539,5.6,-25.9,20.3,21.1
CC1(C)C(c2cccs2)=[N+]([O-])C2(CCCCCC2=NNC(N)=O)N1O (stereo not given),-10.5,x,x,2.0,x,2.8,-1.8
N=C(N)SCc1nc2ccccc2c(=O)n1-c1ccccc1Cl,3.8,-4.4,4186,-6.7,-22.5,13.3,8.3
O=C(NCCCO)C(=O)NCc1ccccn1,2.2,-8.6,4854,-0.5,-6.2,-2.1,3.9
Clc1ccc(C2=CSC3=Nc4cccc5cccc(c45)N23)cc1,4.0,3.1,21777*,-22.7,-18.5,4.7,9.9
CN(C)c1ccc(CNC23CN4CN(CN(C4)C2)C3)cc1,1.5,3.1,3210,4.4,-11.9,x,x
O=C(/C=C/c1ccc(S(=O)(=O)N2CCOCC2)cc1)Nc1cc(F)ccc1F,5.4,x,3302,2.9,-58.3,6.5,5.2
COc1ccc(-c2nnnn2C(C)C)cc1S(=O)(=O)Nc1ccccc1,2.9,-0.9,4454,0.6,-13.7,15.6,11.3
Cc1ccc(N2CC(C(=O)NNC(=O)c3ccc(F)cc3)CC2=O)cc1 (stereo not given),2.5,x,3776,4.0,4.6,4.8,9.5
Cc1cc2nc3n(c2cc1C)CC1CC(C(=O)NCc2cccc(C(F)(F)F)c2)N(C)C31 (stereo not given),3.6,-2.9,3491,4.3,-13.1,0.2,0.9
COC(=O)c1ccccc1NC(=S)NC(=O)COc1ccccc1,-3.8,7.8,2629,-17.0,-9.3,x,x
O=C(Nc1cccc(S(=O)(=O)Nc2ccc(Cl)cc2)c1)c1ccc2c(c1)OCCO2,-5.4,8.8,2022,0.0,7.6,7.0,2.2

Single entries from the entries so far.
CCOc1cccc(N(C(=O)CNC(=O)c2ccco2)C(C(=O)NCC2CCCO2)c2ccccc2)c1 (stereo not given) in Sa RN4220 lethal is listed with 5.9
CC1(C)C(c2cccs2)=[N+]([O-])C2(CCCCCC2=NNC(N)=O)N1O (stereo not given) in Mtb hypoxia inh growth is listed with -1.8

The list continues:
mol,Sa RN4220 lethal,BJeLR viability,Autofluor counter,ugtP null kill,PrP 5UTR inh,Mtb hypoxia inh,Mtb hypoxia inh growth
Cc1cc(=O)c2n(Cc3ccc(Cl)cc3)nc[n+]2[nH]1,2.5,4.1,10259,1.8,-8.5,-0.8,7.0
COc1ccc(OC)c(N(CC(=O)NCCSc2ccccc2)S(C)(=O)=O)c1,-0.3,3.9,4644,0.2,-2.4,2.5,0.3
Cc1cc(Cl)ccc1NC(=S)N1CCC(C(N)=O)(N2CCCCC2)CC1,2.2,-6.5,2426,2.1,-5.4,1.0,-5.8
O=C(CSc1nc2ncccc2[nH]1)c1ccc2c(c1)OCO2,3.4,8.8,3286,-2.3,x,-6.2,0.2
Nc1nnc(CC(=O)N/N=C\c2cc([N+](=O)[O-])ccc2O)s1,x,-3.4,3289,x,-14.0,x,x
O=C(NCc1nnc(SCC(=O)N2CCCC2)o1)c1cccc(C(F)(F)F)c1,4.2,10.6,6077,7.3,-18.7,8.8,0.5
O=[N+]([O-])c1ccc(Sc2ncc3ccccn23)nc1,9.0,-6.9,6068,1.8,-24.5,6.9,9.7
Cc1ccc(C)c(N2C(=O)CC(N3CCN(Cc4ccc5c(c4)OCO5)CC3)C2=O)c1 (stereo not given),1.6,-4.3,10180,-2.2,-31.9,2.7,11.2
CCOc1ccc(-n2c(SCC(=O)c3c(N)n(C)c(=O)n(C)c3=O)nnc2-c2cccnc2)cc1,5.0,4.3,2729,-4.9,-19.4,12.9,1.0
CC(C(=O)N/N=C/c1ccc(N(C)C)c(Br)c1)N(c1ccccc1)S(C)(=O)=O (stereo not given),x,9.8,4951,x,-6.4,x,x
CN(C)c1c(-c2ccccc2)cc(-c2ccccc2)[nH]c1=O,x,19.2,3977,x,-18.4,x,x
CC(C)(C)N1CSC(=S)N(Cc2ccccc2)C1,15.7,-2.3,3968,13.7,-28.0,2.5,16.4
COc1ccccc1-c1nn(-c2ccccc2)cc1C(=O)NCC(c1ccco1)N1CCCC1 (stereo not given),3.5,x,3452,11.6,-28.7,2.9,-14.0
Cc1ccc(S(=O)(=O)N/N=C2/CC(c3ccccc3)Oc3ccccc32)cc1 (stereo not given),x,-0.1,3285,x,-10.4,x,x
Cc1cc(C(=O)Nc2cccc3ccccc23)co1,3.3,-5.9,6356,-1.1,-0.6,7.7,12.6
O=C(CCCN1C(=O)c2ccccc2C1=O)Nc1nc2ccccc2[nH]1,-0.3,2.2,6191,2.6,-8.8,4.9,5.9
Nc1cccc2cnccc12,2.4,x,8113,7.5,-16.1,-3.4,2.7
O=c1cc(O)c(-c2ccccc2Cl)c(Cl)[nH]1,-1.6,3.0,3916,7.5,-20.7,x,x
CCc1ccc(/C=C/C(=O)c2cc(Br)ccc(=O)c2O)cc1,100.1*,12.1,2482,95.5*,-2.0,0.9,2.8
OCC[C@@H]1C[C@@H](O)[C@H](O)[C@]2(CCCCO2)O1,x,7.4,3171,x,-7.9,x,x
CCC1=C(OC(=O)N(CC)CC)N2C(=O)OC(=NCc3ccccc3)[C@]2(C)C2C1=CCC1C(=O)NC(=O)C12 (stereo not given in full),4.3,x,x,3.8,x,14.1,16.5
Cc1ncc(CN2CCC(CO)(CCOc3ccccc3)CC2)s1,2.4,5.8,4062,-0.9,-15.8,5.9,13.1
c1ccc(Cn2cc(CSc3ccccc3)nn2)cc1,7.6,4.9,4502,0.4,-32.5,21.6,11.4
COc1ccc(CCn2c(C)nc3ccccc3c2=O)cc1OC,4.0,-1.2,2317,2.8,-30.8,2.4,3.2
Cc1[nH]n(-c2ccccc2)c(=O)c1C(C[N+](=O)[O-])c1ccccc1Cl (stereo not given),3.2,0.1,2424,-5.8,-9.4,x,x
CCn1cnnc1SCC(=O)Nc1ccccc1C(=O)NC1CC1,1.9,x,3466,3.1,0.9,3.5,14.0
CCN(CC(=O)Nc1ccc2c(c1)OCCO2)C(=O)C(C)Oc1ccc(F)cc1 (stereo not given),0.9,x,u,0.1,-6.7,-6.9,-1.5
Cc1ccsc1CN(C)C(=O)C(NC(=O)c1cccc(S(=O)(=O)N2CCOCC2)c1)C(C)C (stereo not given),3.3,x,4883,2.0,-6.9,-0.3,4.4
NCCCCC(N)c1nnc(C(CCC(=O)O)NC(=O)C2CCNCC2)o1 (stereo not given),3.3,x,x,-0.4,x,12.8,12.8
Cc1ccc(O)c(CNc2ccc(S(=O)(=O)Nc3nccs3)cc2)c1,-0.5,12.9,4781,-8.7,-21.4,1.0,27.5
O=S(=O)(Nc1cccc2ncccc12)c1cccs1,87.6,32.3,u,-3.0,7.5,13.7,13.9
COc1ccc(C2C=CCN(C(=O)Nc3ccccc3)CC(=O)N2Cc2ccc(F)cc2)cc1 (stereo not given),7.3,x,x,8.1,x,19.4,9.1
O=C(NCC1CCCN(Cc2ccc3nonc3c2)C1)c1ccc(F)cc1 (stereo not given),0.5,3.8,5006,8.0,-24.8,-1.0,-0.3
O=C(CC(=O)Nc1ccc(Cl)c(Cl)c1)N/N=C/c1ccc(O)cc1,x,10.2,2193,x,-12.3,x,x
CC1CCCN(C(=O)Cn2nnc(-c3ccccc3F)n2)C1 (stereo not given),0.7,0.4,3963,3.8,-10.8,-14.0,-7.9
CCc1ccc(NC2=CC(=O)CC(C)(C)C2)cc1,4.9,3.9,3058,14.0,-21.1,8.1,-6.3
c1ccc(N2CCN(Cc3ccnc4ccccc34)CC2)cc1,3.7,30.1,10737,3.3,-0.7,-2.8,9.2
O=C(NCc1cccs1)c1cccc(N2CCCC2=O)c1,-1.1,1.6,3141,-3.5,-25.1,x,x
O=C(NCCN1CCOCC1)c1ccc2ccccc2n1,0.6,1.7,7766,3.1,-30.4,2.0,1.0
CNC(=O)C1CC(=O)N(Cc2ccc3c(c2)OCO3)C(=Nc2ccc(OC)cc2)S1 (stereo not given),0.2,8.8,8170,-3.4,-11.9,2.5,-1.2
Cc1ccc(SCCC(=O)Nc2ccccc2C(=O)N2CCOCC2)cc1,5.2,-4.9,10953,-2.6,-13.0,-2.1,-4.9
O=C(c1ccc2ncsc2c1)N1CCCCC1,-0.3,-2.2,5822,-2.8,-46.0,1.6,2.0

Whole records from above. Order of screens: Sa RN4220 lethal, BJeLR viability, Autofluor counter, ugtP null kill, PrP 5UTR inh, Mtb hypoxia inh, Mtb hypoxia inh growth
Profile of `NCCCCC(N)c1nnc(C(CCC(=O)O)NC(=O)C2CCNCC2)o1` (stereo not given) = 3.3, x, x, -0.4, x, 12.8, 12.8
Profile of `O=C(NCCN1CCOCC1)c1ccc2ccccc2n1` = 0.6, 1.7, 7766, 3.1, -30.4, 2.0, 1.0
